GALR2 ag: activates the human galanin receptor 2; O43603; GALR2-expressing cells, agonist activation read-out; activation, %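 (tested at 5 µM)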; actives 0.48% (n = 140,000); AID 803;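 active = above mean plus 3 SD of all compounds, about 5% in these data, not always enough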;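 note: 0% = vehicle buffer wells and 100% = reference agonist at full effect; tested in CHO reporter cells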
INS promoter inh: TRM-6 insulin promoter activity inhibition. AID 1273. inhibition, % at 2 µM. TRM-6 cells (human fetal islet line), insulin promoter-eGFP reporter, imaging; reporter expression induced with tamoxifen. actives 0.9% (n = 130,000);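 active = inhibition above the mean plus 3 SD, with well images judged a real hit on visual review, cut at about 60% in these data, passing the limit was not always enough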
RGS16-Gao HTS: regulators of human RGS16-Galphao interaction; O15492+P09471; bead-based flow cytometry RGS16-Galphao binding, fluorescence; actives lie on both sides; binding response (% of control), % at 10 µM; actives 0.38% (n = 220,000);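 active = below 25% or above 175%, edge rows of some plates excepted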;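 note: Galphao activated by GDP with aluminum fluoride before binding; 100% = wells without compound and 0% = beads without RGS; some results beyond the cut were filed as inactive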
PKD1 kinase inh: inhibitors of human PKD1 kinase; inhibition, %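 (about 10 µM by stock and volumes)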; actives 0.056% (n = 200,000); PKD1 kinase fluorescence polarization assay;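 active = inhibition of 50% or more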;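 note: controls were vehicle for no effect and a reference inhibitor for full effect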
Target sequence (Q15139 whole entry, looked up): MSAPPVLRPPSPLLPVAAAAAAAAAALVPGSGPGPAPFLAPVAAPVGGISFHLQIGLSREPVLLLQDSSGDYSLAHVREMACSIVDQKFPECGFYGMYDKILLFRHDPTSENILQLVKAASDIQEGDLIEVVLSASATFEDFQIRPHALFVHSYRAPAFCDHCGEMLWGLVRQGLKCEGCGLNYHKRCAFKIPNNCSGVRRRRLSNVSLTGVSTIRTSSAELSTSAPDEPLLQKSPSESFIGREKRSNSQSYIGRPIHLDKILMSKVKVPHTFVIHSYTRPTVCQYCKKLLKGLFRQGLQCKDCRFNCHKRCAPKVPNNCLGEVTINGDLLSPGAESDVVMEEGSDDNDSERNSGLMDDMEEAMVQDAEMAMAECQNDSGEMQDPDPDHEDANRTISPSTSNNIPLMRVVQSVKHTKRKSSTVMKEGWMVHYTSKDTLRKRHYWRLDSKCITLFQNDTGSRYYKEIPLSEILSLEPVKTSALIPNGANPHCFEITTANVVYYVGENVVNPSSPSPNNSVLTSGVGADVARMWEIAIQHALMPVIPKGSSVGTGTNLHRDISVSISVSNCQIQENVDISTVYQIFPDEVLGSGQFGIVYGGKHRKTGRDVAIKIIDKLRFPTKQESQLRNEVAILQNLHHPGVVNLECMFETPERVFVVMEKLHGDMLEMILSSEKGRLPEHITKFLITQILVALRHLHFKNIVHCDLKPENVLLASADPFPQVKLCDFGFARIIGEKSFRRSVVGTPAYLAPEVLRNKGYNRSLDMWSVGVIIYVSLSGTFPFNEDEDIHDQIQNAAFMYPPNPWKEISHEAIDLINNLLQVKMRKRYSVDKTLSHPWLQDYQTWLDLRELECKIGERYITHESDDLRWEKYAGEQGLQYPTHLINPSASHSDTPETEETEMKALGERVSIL
HSV augment: HSV replication enhancement. HSV replication augmentation in cells, fold increase. maximum fold increase. actives 0.005% (n = 220,000);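 active = peak rise of 1.5-fold or more in the series; tested in PC3 cells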;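 note: first round at 10 µM; read as green reporter fluorescence; hits show the peak of a series up to 25 µM; 1 = signal of infected wells without compound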
INS promoter inh cell count: further read-out of INS promoter inh, marked with its call; normalized cell count, %; measured here: cell count, toxicity; reference of the scale not given here;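 cells exposed to compound for 48 h; stained nuclei by imaging scaled within each plate; lower means fewer cells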
HSV augment primary fold: recorded beside HSV augment, whose call it bears; fold increase; compound at 10 µM; measured here: primary screen fold increase 10 uM; tested in PC3 cells;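 GFP signal in the first replicate; 1 = infected wells without compound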
* hit, by the source's call.

`COc1ccc(CCNC(=O)c2ccc(Cl)cc2)cc1OC` gave RGS16-Gao HTS 103.2, PKD1 kinase inh 5.7, HSV augment inactive and HSV augment primary fold 0.92.
Screening COc1cc(NC(=O)CN2CCN(Cc3ccc4c(c3)OCO4)CC2)cc(OC)c1 returned GALR2 ag -0.1, INS promoter inh 40.5, RGS16-Gao HTS 105.9, PKD1 kinase inh -5.5 and INS promoter inh cell count 109.0.
For N/C(Cc1ccc([N+](=O)[O-])cc1)=N\OC(=O)c1ccccc1F the results were RGS16-Gao HTS 100.4, PKD1 kinase inh 7.0, HSV augment inactive and HSV augment primary fold 0.94.
OCC1(Cc2cccc(Cl)c2)CCCN(Cc2cnn(-c3ccccc3)c2)C1 (configuration not stated) was read as RGS16-Gao HTS 98.1, PKD1 kinase inh -5.9, HSV augment inactive and HSV augment primary fold 0.89.
For COc1nc(N/N=C/c2ccc(-c3ccccc3[N+](=O)[O-])o2)nc(N2CCOCC2)n1 the results were GALR2 ag -0.3, INS promoter inh 36.0, RGS16-Gao HTS 107.5, PKD1 kinase inh 1.8, HSV augment inactive, INS promoter inh cell count 104.2 and HSV augment primary fold 0.92.
`Cc1cc(C)cc(-n2c(C)cc(/C=N\NC(=O)COc3cccc4cccnc34)c2C)c1` gave GALR2 ag -1.4, INS promoter inh -64.3, RGS16-Gao HTS 102.7, PKD1 kinase inh -6.4, HSV augment inactive, INS promoter inh cell count 119.2 and HSV augment primary fold 0.95.
Screening CCCCc1ccc(NC(=O)CSC2=C(C#N)C(c3ccco3)C3=C(CCCC3=O)N2)cc1 (configuration not stated) returned GALR2 ag 0.5, RGS16-Gao HTS 105.9 and PKD1 kinase inh -1.1.
For Cc1ccc(/C=C2\SC(=S)N(C3CCS(=O)(=O)C3)C2=O)o1 (configuration not stated) the results were RGS16-Gao HTS 103.3, PKD1 kinase inh -5.0, HSV augment inactive and HSV augment primary fold 1.16.
CCCCCCCn1c(C)nnc1-c1cnn(C)c1N was read as RGS16-Gao HTS 100.9, PKD1 kinase inh 2.2, HSV augment inactive and HSV augment primary fold 1.03.
O=C(O)CC(NC(=O)C12CC3CC(CC(C3)C1)C2)c1ccc2c(c1)OCO2 (configuration not stated) was read as RGS16-Gao HTS 99.8, PKD1 kinase inh 1.0, HSV augment inactive and HSV augment primary fold 1.03.

Next part; it opens with the two that closed the last part.
CCCCCCCn1c(C)nnc1-c1cnn(C)c1N was read as RGS16-Gao HTS 100.9, PKD1 kinase inh 2.2, HSV augment inactive and HSV augment primary fold 1.03.
O=C(O)CC(NC(=O)C12CC3CC(CC(C3)C1)C2)c1ccc2c(c1)OCO2 (configuration not stated) was read as RGS16-Gao HTS 99.8, PKD1 kinase inh 1.0, HSV augment inactive and HSV augment primary fold 1.03.
Screening COCCn1c(=NC(=O)c2ccco2)sc2cc(C(=O)OC)ccc21 returned GALR2 ag -0.2, RGS16-Gao HTS 96.3, PKD1 kinase inh -10.5, HSV augment inactive and HSV augment primary fold 1.13.
For CC1CC(NC(=O)C2(C)CC2(Cl)Cl)CC(C)(C)C1 (configuration not stated) the results were GALR2 ag -2.5, INS promoter inh -18.6, RGS16-Gao HTS 102.1, PKD1 kinase inh -4.1, HSV augment inactive, INS promoter inh cell count 104.6 and HSV augment primary fold 0.92.
`Cc1csc(NC(=O)C2CCN(C(=O)c3ccccc3C)CC2)n1` gave INS promoter inh -25.0, RGS16-Gao HTS 49.5, PKD1 kinase inh -4.4, HSV augment inactive, INS promoter inh cell count 69.6 and HSV augment primary fold 1.01.
CC(=O)Nc1ccc(NS(=O)(=O)c2ccc(C)cc2)cc1[N+](=O)[O-] was read as RGS16-Gao HTS 108.9, HSV augment inactive and HSV augment primary fold 0.96.
CN(Cc1ccc(Cl)s1)C(=O)CCl was read as RGS16-Gao HTS 88.8, PKD1 kinase inh 6.6, HSV augment inactive and HSV augment primary fold 1.01.
Screening COC(=O)c1ccc(Oc2nc3c(c(=O)n(C)c(=O)n3C)n2CCC(C)C)cc1 returned GALR2 ag -3.4, INS promoter inh 62.5, RGS16-Gao HTS 102.0, PKD1 kinase inh -0.2, HSV augment inactive, INS promoter inh cell count 123.6 and HSV augment primary fold 1.
For O=[N+]([O-])c1ccc2oc(C3CCCCC3)nc2c1 the results were RGS16-Gao HTS 103.7, PKD1 kinase inh -2.9, HSV augment inactive and HSV augment primary fold 0.98.
For Cc1cccc2c(=O)cc(C(F)(F)F)[nH]c12 the results were RGS16-Gao HTS 78.7, HSV augment inactive and HSV augment primary fold 1.06.
`O=C(CCN1C(=O)C2C3C=CC(C3)C2C1=O)Oc1ccc2ccccc2c1` (configuration not stated) gave RGS16-Gao HTS 96.4, PKD1 kinase inh 2.2, HSV augment inactive and HSV augment primary fold 0.95.
CC(C)CNC(=O)C(=O)NN=C1CCCCCC1 was read as GALR2 ag -1.1, INS promoter inh 6.2, RGS16-Gao HTS 106.1, PKD1 kinase inh -0.8, HSV augment inactive, INS promoter inh cell count 85.0 and HSV augment primary fold 0.88.

Grouped by structure: the compounds so far with fluorine
For N/C(Cc1ccc([N+](=O)[O-])cc1)=N\OC(=O)c1ccccc1F the results were RGS16-Gao HTS 100.4, PKD1 kinase inh 7.0, HSV augment inactive and HSV augment primary fold 0.94.
For Cc1cccc2c(=O)cc(C(F)(F)F)[nH]c12 the results were RGS16-Gao HTS 78.7, HSV augment inactive and HSV augment primary fold 1.06.

(more compounds)
CN=C1SC(CC(=O)Nc2ccc(F)cc2F)C(=O)N1/N=C/c1ccc(OC(F)F)c(OC)c1 (configuration not stated) was read as RGS16-Gao HTS 92.0, PKD1 kinase inh -4.6, HSV augment inactive and HSV augment primary fold 0.79.
Screening COc1ccc(/C=N/n2c(C)nc3sc(C)c(C)c3c2=O)cc1OC returned INS promoter inh 36.6, RGS16-Gao HTS 105.3, PKD1 kinase inh -3.7, HSV augment inactive, INS promoter inh cell count 113.6 and HSV augment primary fold 1.
CCOC(=O)C(=O)Nc1nnc(COc2ccccc2)s1 was read as RGS16-Gao HTS 104.8, PKD1 kinase inh -3.3, HSV augment inactive and HSV augment primary fold 1.06.
For N/C(=N\OC(=O)COc1ccc(Br)cc1)c1cccnc1 the results were GALR2 ag -1.0, INS promoter inh -10.0, RGS16-Gao HTS 106.3, PKD1 kinase inh 0.5, HSV augment inactive, INS promoter inh cell count 106.9 and HSV augment primary fold 0.96.
`CC1=CCC2C(=O)N(c3ccc(C)cc3)C(=O)C2C1` (configuration not stated) gave GALR2 ag 0.8, INS promoter inh 26.9, RGS16-Gao HTS 110.0, PKD1 kinase inh 1.2, HSV augment inactive, INS promoter inh cell count 90.9 and HSV augment primary fold 0.84.
`COc1ccc(C2c3ccc(O)cc3Oc3ncn4nc(-c5cccnc5)nc4c32)cc1OC` (configuration not stated) gave RGS16-Gao HTS 98.1, HSV augment inactive and HSV augment primary fold 0.79.
CCO[C@H]1OC(C(=O)N2CCOCC2)=C[C@@H](c2ccc3c(c2)OCO3)[C@@H]1CCCO was read as RGS16-Gao HTS 98.7, PKD1 kinase inh 10.9, HSV augment inactive and HSV augment primary fold 1.
CCOC(=O)c1ccc(NS(=O)(=O)c2ccc(Cl)nc2)cc1 was read as INS promoter inh -50.0, RGS16-Gao HTS 107.2, PKD1 kinase inh 8.1, HSV augment inactive, INS promoter inh cell count 100.2 and HSV augment primary fold 0.92.
For COc1ccc(CNC(=O)C(c2ccncc2)N(C(=O)Cc2cccs2)c2cccnc2)cc1 (configuration not stated) the results were RGS16-Gao HTS 100.9, HSV augment inactive and HSV augment primary fold 0.81.
Cc1ccc(N2C(=O)CC(n3ccnc3)C2=O)cc1C (configuration not stated) was read as GALR2 ag -1.7, INS promoter inh -10.0, RGS16-Gao HTS 112.9, PKD1 kinase inh -11.6, HSV augment inactive, INS promoter inh cell count 136.3 and HSV augment primary fold 0.92.
For Cc1ccc(CNC(=O)C2c3ccccc3C(=O)N(C)C2c2c[nH]c3ccccc23)o1 (configuration not stated) the results were GALR2 ag 0.1, INS promoter inh -31.0, RGS16-Gao HTS 98.7, PKD1 kinase inh -4.6, HSV augment inactive, INS promoter inh cell count 112.9 and HSV augment primary fold 0.85.
`COc1ccc(OC)c(C2C(C(=O)c3cccs3)=C(O)C(=O)N2CCN(C)C)c1` (configuration not stated) gave GALR2 ag -2.9, INS promoter inh 50.0, RGS16-Gao HTS 98.6, PKD1 kinase inh 20.2, HSV augment inactive, INS promoter inh cell count 129.3 and HSV augment primary fold 0.88.
For Cc1c(C(=O)Nc2nnc(C(F)(F)F)s2)oc2ccccc12 the results were RGS16-Gao HTS 108.4, HSV augment inactive and HSV augment primary fold 1.08.
Screening CCCCn1nc2cc(C(=O)NCc3ccccc3OC)ccc2c1OCC returned GALR2 ag -0.5, INS promoter inh 6.8, RGS16-Gao HTS 100.9, PKD1 kinase inh -4.1, HSV augment inactive, INS promoter inh cell count 84.7 and HSV augment primary fold 1.01.
Screening CCn1c(=NC(=O)c2cccc(N3C(=O)CCC3=O)c2)sc2c(OC)ccc(OC)c21 returned RGS16-Gao HTS 99.5, PKD1 kinase inh -6.8, HSV augment inactive and HSV augment primary fold 0.78.
Screening Cc1nn(-c2ccccc2)c2c1C1(C(=O)N3c4c(cccc41)C(C)CC3(C)C)C(C#N)=C(N)O2 (configuration not stated) returned GALR2 ag -2.3, INS promoter inh 10.7, RGS16-Gao HTS 93.7, PKD1 kinase inh -5.8, HSV augment inactive, INS promoter inh cell count 68.4 and HSV augment primary fold 0.88.
CCSc1nnc(NC(=O)CSc2nc3c(c(=O)n2C)SC(C)C3)s1 (configuration not stated) was read as GALR2 ag -0.1, INS promoter inh 35.7, RGS16-Gao HTS 119.7, PKD1 kinase inh -5.1, HSV augment inactive, INS promoter inh cell count 126.7 and HSV augment primary fold 0.92.
`CCCS(=O)(=O)c1c(S(=O)(=O)CCC)c2cc(CC)ccn2c1C(=O)OC` gave GALR2 ag 1.3, RGS16-Gao HTS 100.3, PKD1 kinase inh 14.0, HSV augment inactive and HSV augment primary fold 0.79.
Screening CC(C)COc1cccc(C(=O)Nc2ccc(S(=O)(=O)N3CCOCC3)cc2)c1 returned GALR2 ag -1.0, INS promoter inh -5.9, RGS16-Gao HTS 96.5, PKD1 kinase inh -0.3, HSV augment inactive, INS promoter inh cell count 175.4 and HSV augment primary fold 0.75.
COc1ccc2nc(/N=C(\N)NC(=O)N3c4ccccc4Sc4ccccc43)nc(C)c2c1 was read as GALR2 ag -0.6, INS promoter inh 2.9, RGS16-Gao HTS 112.2, PKD1 kinase inh -9.9, HSV augment inactive, INS promoter inh cell count 62.8 and HSV augment primary fold 0.78.
Cc1ccccc1Nc1nc(-c2cccnc2)nc2ccccc12 was read as RGS16-Gao HTS 103.1 and PKD1 kinase inh -7.8.
COc1ccc(OC)c(NC(=S)NN2CCN(C)CC2)c1 was read as GALR2 ag -2.6, INS promoter inh -17.9, RGS16-Gao HTS 102.2, PKD1 kinase inh -1.7, HSV augment inactive, INS promoter inh cell count 121.3 and HSV augment primary fold 0.967.
Screening COc1ccc(-c2nnn(CC(=O)NCc3cccs3)n2)cc1OC returned GALR2 ag -1.8, INS promoter inh -28.2, RGS16-Gao HTS 107.1, PKD1 kinase inh -11.8, HSV augment inactive, INS promoter inh cell count 60.2 and HSV augment primary fold 0.97.
CCCOc1ccc([C@@H]2C3CN(C(=O)OCC)CC=C3C(C#N)=C(N)C2(C#N)C#N)cc1OC (some centres not stated) was read as GALR2 ag -0.9, INS promoter inh -18.9, RGS16-Gao HTS 97.0, PKD1 kinase inh -4.0, HSV augment inactive, INS promoter inh cell count 181.5 and HSV augment primary fold 0.91.
CCOC1OC2C(CO)OC(n3cnc4c(N)ncnc43)C2O1 (configuration not stated) was read as GALR2 ag -1.1, RGS16-Gao HTS 85.6, PKD1 kinase inh 1.8, HSV augment inactive and HSV augment primary fold 0.91.
For CC1CC(C(F)(F)F)n2ncc(C(=O)O)c2N1 (configuration not stated) the results were GALR2 ag -1.8, RGS16-Gao HTS 107.1, PKD1 kinase inh 2.2, HSV augment inactive and HSV augment primary fold 0.97.
Screening NC(=O)CS(=O)(=O)c1ccc(Cl)cc1 returned RGS16-Gao HTS 99.1, PKD1 kinase inh -0.1, HSV augment inactive and HSV augment primary fold 1.08.
Screening Cc1cccc(NC(=O)C2CCCN2C(=O)Oc2ccccc2)c1 (configuration not stated) returned GALR2 ag -0.8, INS promoter inh -27.6, RGS16-Gao HTS 102.4, PKD1 kinase inh -6.8, HSV augment inactive, INS promoter inh cell count 102.3 and HSV augment primary fold 1.04.
For Cc1ccc(SCc2nc(-c3ccccc3)no2)cc1 the results were GALR2 ag -4.4, INS promoter inh 63.6, RGS16-Gao HTS 103.2, PKD1 kinase inh -8.0, HSV augment inactive, INS promoter inh cell count 151.6 and HSV augment primary fold 1.01.
For Cn1/c(=N/NC(=O)c2cccc(OC(F)F)c2)sc2ccccc21 the results were GALR2 ag -1.5, INS promoter inh 46.0, RGS16-Gao HTS 104.0, PKD1 kinase inh -6.2, HSV augment inactive, INS promoter inh cell count 145.4 and HSV augment primary fold 0.83.
